# Vif TR-FRET – inhibitors of Vif binding to APOBEC3G peptide, primary screen, biochemical, TR-FRET, GST-Vif 1-94, biotin-A3G peptide, dose response retest (AID 1117319); TR-FRET GST-Vif / biotin-A3G peptide binding; higher % means a stronger effect; test concentration not given here; strong numbers were not always called active; one-dose inhibition, %; IC50 in µM for titrated hits; hit rate 0.57% among 260,000;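 active = above the screen mean plus three standard deviations and confirmed in dose response; inconclusive = results disagree or hit not tested in dose response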;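 note: Vif residues 1-94 fused to GST binding biotinylated APOBEC3G peptide 110-148; 0% = full assay without inhibitor and 100% = GST in place of GST-Vif; retest series ran down from 100 µM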
# Calb FLC – affects C. albicans growth with fluconazole | C. albicans CaCi-2 (fluconazole-resistant clinical isolate) + fluconazole, Alamar Blue growth, 48 h | growth inhibition, % (no concentration beside the values) | hit rate 0.57% among 300,000 | AID 1979;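 active = most replicates above 75%; inconclusive = exactly half above 75%; inactive = most below 75%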;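 note: all wells also contain fluconazole at 8 µg/ml as a sub-toxic cotreatment; 0% = median of DMSO wells and 100% = median of geldanamycin control wells; wells of about 8 µL received 7.5 nL stock; the first replicate is given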
# Ecoli rRNA inh – inhibitors of bacterial rRNA selective over humanized ribosomes; hit rate 1.6% among 350,000; GFP signal change (wild-type ribosome), % (test concentration not listed); E. coli WT GFP vs humanized-ribosome RFP mutants, fluorescence, 24 h; active compounds read low; DMSO median 0, no signal -100; AID 720706;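 active = significant combined selectivity score with lowered wild-type GFP, culture density cut under 30%, mutant RFP and density less affected; inactive = any of these conditions unmet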; note: one replicate is shown; some compounds called inactive have numbers as strong as hits
# Bfl-1 A1 inh – inhibitors of the anti-apoptotic protein A1, read as caspase activation | MEF A1-2A-BIM cells, Caspase-Glo 3/7 luminescence, 3 h; percent of clofoctol response, vehicle zero | caspase activation, % (no concentration beside the values) | hit rate 0.066% among 330,000;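 active = over half of replicate activation scores above 10%, or exactly half above 10 with the replicate mean above 10; inconclusive = replicate mean below 10 yet half the replicates above 10; inactive = over half of replicates below 10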;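 note: wells of about 30 µL received 50 nL stock; many hits fall short of the cut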
# RanGTP-Imp inh – disruptors of Ran-importin-beta complex formation – biochemical, FRET, CFP-Ran, YFP-importin-beta, homogeneous, primary screen | inhibition, % (concentration not given with the values) | AID 2216 | hit rate 1.1% among 300,000 | cell-free CFP-Ran/YFP-importin-beta FRET ratio;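 active = most replicates above 15%; inconclusive = exactly half above 15%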;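 note: 0% = DMSO wells and 100% = Ran loaded with GDP instead of GTP; wells of about 40 µL received 100 nL stock; the first replicate is given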
# Beta cell apopt – beta cell apoptosis inhibition. INS-1E cytokine-induced death, ATP luminescence, 48 h; percent of positive-control rescue, neutral wells zero. hit rate 0.8% among 300,000. protection from apoptosis, % (test concentration not listed);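 active = all replicates at 75% or more, or half of them and the mean; inconclusive = half reach 75% but not the mean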;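 note: 0% = cytokine-treated negative control wells and 100% = positive control rescue; higher means more ATP so stronger rescue from cytokine killing; wells of about 40 µL received 100 nL stock; the first replicate is given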
# T cruzi repl – T. cruzi replication inhibition; T. cruzi beta-gal in NIH3T3, luminescence, 90 h; inhibition, % (concentration not given with the values); hit rate 1.4% among 300,000; AID 1885;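 active = mean inhibition across valid replicates above about 55%, limit read from the data; inconclusive = mean below that limit but half or more replicates reach it; inactive = mean below it, under half of replicates reach it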;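 note: signal also drops with host cell toxicity which is not excluded here; 0% = plate median of DMSO wells and 100% = zero luminescence signal; higher percent means less beta-gal luminescence so fewer parasites; stock transfer was 50 nL into about 50 µL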
# MLL AF4-AF9 inh – blocks AF4 peptide binding to human AF9; AlphaScreen, biotin-AF4 peptide binding to FLAG-AF9; inhibition, % at 10 µM; hit rate 0.47% among 350,000; AID 651704;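 active = every replicate reaching a set inhibition limit, whatever the replicate mean, cut at about 25% in these data; inconclusive = mean inhibition reaches that limit but some replicates miss it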;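 note: 0% = plate neutral control median and 100% = total signal loss; the record names both 10 and 1 µM as test concentration; the first replicate is given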
# Target sequence (P42568 whole entry, looked up): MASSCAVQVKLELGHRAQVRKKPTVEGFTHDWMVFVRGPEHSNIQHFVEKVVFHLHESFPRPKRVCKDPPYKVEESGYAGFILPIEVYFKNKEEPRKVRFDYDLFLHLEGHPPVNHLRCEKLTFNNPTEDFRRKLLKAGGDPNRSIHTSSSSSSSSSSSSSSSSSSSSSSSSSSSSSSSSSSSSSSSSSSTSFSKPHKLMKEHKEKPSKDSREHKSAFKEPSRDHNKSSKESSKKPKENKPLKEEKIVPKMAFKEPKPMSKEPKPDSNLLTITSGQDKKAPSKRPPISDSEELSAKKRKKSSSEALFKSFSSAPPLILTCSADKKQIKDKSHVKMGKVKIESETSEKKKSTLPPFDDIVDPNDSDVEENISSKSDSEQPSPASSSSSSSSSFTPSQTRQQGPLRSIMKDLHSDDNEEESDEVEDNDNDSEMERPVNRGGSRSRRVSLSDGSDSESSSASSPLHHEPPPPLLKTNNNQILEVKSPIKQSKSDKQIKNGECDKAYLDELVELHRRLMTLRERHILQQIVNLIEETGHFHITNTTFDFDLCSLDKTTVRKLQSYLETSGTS
# Ecoli rRNA inh OD600 – recorded beside Ecoli rRNA inh, whose call it bears; OD600 change, %; measured here: OD600 growth;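 optical density of the mix in the first replicate; 0 = DMSO median and -100 = no signal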
# Ecoli rRNA inh RFP – second read-out of Ecoli rRNA inh, no call of its own (marks repeat the call); RFP signal change, %; measured here: RFP humanized mutant strains;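 first replicate; 0 = DMSO median and -100 = no signal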
# * = called active by the depositor; ? = inconclusive; · = not tested or not shown; & = joins results of further samples. A portion of the library; count on the stated rates, not on these rows.
SMILES,Vif TR-FRET,Calb FLC,Ecoli rRNA inh,Ecoli rRNA inh OD600,Ecoli rRNA inh RFP,Bfl-1 A1 inh,RanGTP-Imp inh,Beta cell apopt,T cruzi repl,MLL AF4-AF9 inh
COc1ccccc1NC(=O)CCS(=O)(=O)c1cc2c(cc1Cl)NC(=O)CO2,4.4%,-3.7,6.1,8.1,-2.1,-0.8,20.8,-1.1,-3.7,-4.2
CCCCOc1nc(N2CCOCC2)nc(C)c1[N+](=O)[O-],-4.3%,-1.4,-6.3,3.2,-0.6,0.4,1.0,-0.9,23.5,1.8
Cc1cccc(N(C)C(=O)c2cc(S(=O)(=O)N3CCCCC3)c[nH]2)c1,·,-4.4,3.1,-12.4,1.7,1.5,-0.8,-0.7,-5.3,-3.7
Cc1ccc(NC(=O)CSCC(=O)Nc2ccc(S(=O)(=O)N3CCCC3)cc2)cc1,-3.2%,-11.0,-0.1,-3.4,-2.2,0.1,-0.9,-4.5,8.9,0.4
CCN1C(=O)N[C@@H](c2ccccc2)[C@@H](C(=O)OC)[C@H]1C,·,21.3,5.3,11.7,5.3,0.5,2.3,-4.2,-32.4,0.0
C[C@@H](C(=O)Nc1ccc2ccccc2c1)[C@H]1C[C@]1(C)[C@H](NS(=O)(=O)c1ccc(-c2ccccc2)cc1)c1ccccc1,-1.4%,·,8.4,6.2,-1.9,0.5,·,3.6,·,-0.5
O=C1C2C3C=CC(C3)C2C(=O)N1c1ccc2c(c1)OCO2 (stereo not given),5.1%,-6.6,·,·,·,-0.2,-1.7,-10.6,-4.8,·
CC1=C(C(N)=O)C(c2ccc(Cl)c(Cl)c2)n2ncnc2N1 (stereo not given),-3.6%,5.0,10.3,2.5,2.5,-3.5,1.4,-4.0,12.0,-4.8
COc1ccccc1NC(=O)c1ccc(NC(=O)COC(=O)C2(C)CC2(Cl)Cl)cc1 (stereo not given),25.3%,24.4,·,·,·,0.8,1.0,-4.1,-0.9,·
O=C(/C=C/c1ccc2c(c1)OCO2)Nc1nc2ccccc2s1,·,1.3,·,·,·,-4.1,-3.5,58.0,-22.2,·
O=C(CCc1ccccc1)NCc1ccccc1,-4.1%,·,8.1,10.9,-1.5,0.1,·,0.7,11.4,-0.6
O=C(NCc1ccccc1)N[C@@H](Cc1c[nH]c2ccccc12)C(=O)O,19.2%,-15.9,·,·,·,-1.2,1.1,0.5,-5.3,·
C/C(=N\NC(=O)c1nn(C)cc1Br)c1ccc(NC(=O)c2ccncc2)cc1,29.3%,-5.9,9.6,14.0,-4.7,-0.1,1.2,4.1,-11.6,-24.1
CCOC(=O)[C@H]1[C@H]2COc3ccc(OC)cc3[C@@H]2N2C(=O)CN(Cc3ccccc3)C(=O)[C@@]12C,·,·,-7.6,-17.2,1.8,0.8,·,3.8,·,2.7
C/C(=N\NC(=O)C1(C)CC1(Br)Br)c1ccc(NC(=O)C2CCC2)cc1 (stereo not given),19.0%,2.4,14.1,5.3,-7.5,-0.5,3.7,4.5,-7.3,4.7
COc1ccc(C[C@H]2CN3C(=NC[C@H]3Cc3ccccc3)N2CCNC(=O)CCC2CCCCC2)cc1,-10.4%,20.1,-49.5,-77.8,-23.9,0.9,-1.9,8.6,7.2,13.1
O=C(NN=C1CCCCCC1)c1cn(-c2ccccc2)nc1-c1ccccc1,·,-16.2,·,·,·,-0.1,3.9,5.7,2.9,·
CCNc1nc(NC(C)C)nc(Oc2ccc(/C=N/O)cc2)n1,-1.7%,1.9,·,·,·,1.1,1.4,-1.6,6.2,·
CCCC(CCC(=O)Nc1ccc(C(=O)OC)cc1)C(=O)O (stereo not given),18.1%,-7.7,·,·,·,0.6,1.1,0.5,-1.2,·
Cc1ccccc1/C=N/NC(=O)c1cccnc1,·,11.2,14.6,11.7,-7.0,?,-2.4,-0.6,-5.8,-1.7
Cc1cccc(NC(=S)N(Cc2ccc(Br)cc2)Cc2ccc(C(=O)O)cc2)c1,15.4%,13.6,-8.4,-4.3,7.2,-1.9,-0.4,-5.5,5.2,0.3
N#Cc1ccc(-c2nc3ccccc3c(=O)n2O)cc1,·,-6.0,2.0,5.7,1.2,-0.2,6.9,-5.2,-5.4,0.8
O=C(OCC(=O)N1CCOCC1)c1ccc(N2CCOCC2)c([N+](=O)[O-])c1,5.0%,-18.5,9.9,-1.1,-0.7,-0.4,7.8,-2.2,2.0,0.8
O=C(Nc1ccccc1O)c1cccc(NC(=O)c2ccco2)c1,17.9%,44.4,-3.6,0.0,3.1,1.2,-6.0,-1.1,-12.2,-6.7
Cc1nc2ccccc2n1CC(O)Cn1c(C(F)(F)F)nc2ccccc21 (stereo not given),-0.1%,-1.5,·,·,·,0.1,3.3,-0.5,-15.7,·
CCn1c(SCC(=O)Nc2cc(C(C)(C)C)nn2-c2ccccc2)nnc1-c1cccs1,·,5.5,·,·,·,0.0,1.0,8.2,16.4,-0.3
C=CCSc1nnc(C)c(/C=C/Nc2ccc(Cl)cc2)n1,·,-18.4,-9.2,-12.0,11.7,0.5,-22.2,-1.5,24.1,-0.5
CCOc1ccc(C(=O)OCCN(C)C)cc1,21.3%,-14.1,·,·,·,1.4,-1.1,-2.2,3.1,·
COc1ccc(Cc2nc3ccc(C(=O)N(C)C(C)c4nccs4)cc3o2)cc1 (stereo not given),·,-9.6,-1.4,-1.1,-0.6,0.1,4.1,1.8,-5.6,-1.0
O=C(CSc1nc(=O)n(CCCN2CCOCC2)c2c1CCCC2)Nc1cccc(F)c1,-6.4%,7.7,-5.6,-2.6,-1.8,0.4,0.1,9.0,21.2,1.1
COc1ccc(Cc2nnc(SCC(=O)Nc3ccc(C)c(Cl)c3)[nH]c2=O)cc1,-4.9%,-1.9,-1.9,1.6,-4.5,-0.4,-0.2,·,23.1,-9.7
COC(=O)c1sc(C(F)(F)F)c(-c2ccccc2)c1S(=O)(=O)N(C)C,-5.2%,55.5,-1.1,-5.1,-3.0,0.9,-8.7,0.6,-8.5,-6.1
O=C(Nc1ccnn1C1CCN(CCCC2CCCC2)CC1)c1ccccc1,·,-5.0,2.3,-0.9,3.5,-0.6,3.0,-5.0,20.4,-5.6
Cc1cc(C(=O)COC(=O)c2n[nH]c(=O)c3ccccc23)c(C)n1C(C)C,-1.4%,·,7.6,0.3,-0.3,-0.4,·,1.4,·,-0.2
COC(=O)C[C@H]1c2cc(C(F)(F)F)ccc2S(=O)(=O)N1Cc1ccc(OC)cc1,·,-0.6,-7.5,-12.5,-1.5,-1.3,1.6,0.7,-12.3,-5.1
O=C(O)C(Cc1c[nH]c2ccccc12)NS(=O)(=O)c1ccccc1 (stereo not given),-2.4%,2.0,·,·,·,-0.2,0.0,-16.4,-11.0,·
Cc1cc(C)c(S(=O)(=O)N2CCN(C3CC(=O)N(c4ccccc4Cl)C3=O)CC2)c(C)c1 (stereo not given),·,·,-12.5,-21.6,4.9,2.6,·,1.1,·,0.4
COc1ccc(S(=O)(=O)Cc2ccc(C(=O)NC3CCCCCC3)o2)cc1,4.8%,9.3,-9.8,-15.0,0.4,-0.5,1.0,-1.7,9.8,0.8
O=C(c1nn(-c2ccccc2)c(=O)c2ccccc12)N1CCN(c2ccccn2)CC1,14.0%,?,·,·,·,0.7,0.8,1.4,-4.3,·
COc1ccc(F)cc1C(=O)C1CCCN(Cc2cnc(N3CCCC3)s2)C1 (stereo not given),0.7%,7.4,3.0,-5.5,-2.5,0.8,7.5,0.5,56.6*,-13.8
COc1cc(/C=C/C(=O)OCC(=O)NCCc2ccc(F)cc2)ccc1OC(F)F,21.7%,·,0.3,1.3,-0.4,-0.3,·,-13.7,·,-1.1
Cc1cc(=O)[nH]c(NCc2ccc(Cl)cc2)n1,·,2.9,-5.5,-4.7,-1.6,-0.4,-0.5,-5.6,-6.7,0.7
CC(C)CCNC(=O)c1ccc2c(c1)N(C)C(=O)c1ccccc1S2,·,2.7,-0.6,-43.1,1.0,0.3,4.7,-4.1,-5.6,-17.8
O=C/C=C/c1c(-c2ccccc2)cc2oc3ccccc3cc1-2,21.9%,9.1,14.4,9.8,6.2,0.6,-14.6,0.9,-6.5,6.9
CS(=O)(=O)NCCCNc1c(Cl)cccc1[N+](=O)[O-],16.9%,-1.3,·,·,·,0.6,-0.1,·,11.9,·
Cc1cccc(C)c1NC(=O)CSc1nnnn1C,0.4%,-5.4,·,·,·,1.1,4.1,3.1,-17.1,·
O=C(O)c1ccccc1S(=O)(=O)Cc1ccccc1,-0.7%,33.8,·,·,·,2.1,6.5,-5.3,-9.0,·
COc1ccc2sc(-c3ccc(N(C)C)cc3)c(C#CCCO)c2c1,·,·,-17.9,-13.2,1.0,-2.6,·,2.6,·,-3.9
Cc1cc(-c2cc(N)n(-c3ccccc3)n2)c(C)n1C1CCCC1,?,6.2,9.5,5.5,3.0,-0.1,-7.1,-0.9,45.8,8.9
CCOc1cc(N2CCOCC2)c(OCC)cc1NC(=O)C1CCCC1,9.6%,22.8,·,·,·,0.2,1.1,-0.6,2.1,·
CCOc1cc(C)c(C(C)C)cc1S(=O)(=O)n1cnc(C)c1,-3.4%,-18.5,-18.6,-21.3,-1.2,-0.3,0.2,2.9,55.3*,0.0
CCCNS(=O)(=O)c1ccc(CCC(=O)Nc2cc(Cl)ccc2Oc2ccccc2)cc1,-2.2%&9.4%,-8.4,·,·,·,·,0.0,·,30.0,·
COc1ccc(CCNC(=O)COc2nsnc2N2CCOCC2)cc1OC,3.1%,-13.5,·,·,·,0.6,0.6,-5.7,-1.1,·
O=c1cc(-c2ccccc2)c2c([nH]1)CCCC2,-2.6%,-3.9,·,·,·,·,-0.7,·,-2.3,·
CCOc1ccc(CN2CCN(Cc3nc(C(C)C)cs3)CC2CCO)cc1 (stereo not given),-3.0%,-9.3,-0.8,-5.5,0.0,1.3,1.2,3.9,58.2*,1.6
O=C1CSC(c2ccncc2)N1Cc1ccco1 (stereo not given),7.8%,-9.6,·,·,·,0.7,3.4,-3.6,-20.2,·
CC(=O)c1sc(NC(=O)Cc2c(F)cccc2Cl)nc1C,·,0.1,-8.6,-12.1,1.5,-1.5,?,·,10.2,-6.0
CCN(CCn1cccn1)C(=O)CC1C(=O)NCCN1Cc1cc(OC)cc(OC)c1 (stereo not given),10.1%,-7.0,11.9,11.3,-2.1,0.3,?,2.0,-11.9,-1.0
NC(=O)c1c(NC(=O)COC(=O)c2ccc(O)c(Cl)c2)sc2c1CCCC2,7.0%,·,-22.1,-49.5,-3.2,-1.1,·,-6.1,·,-31.1
